# Screening results: PubChem BioAssay, Broad Institute
# Shh pathway inh: blocks Sonic Hedgehog signaling | Shh-LIGHT2 Gli-luciferase reporter, 30 h | inhibition, % (test concentration not listed) | 2.1% of 22,000 active;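 active = replicate mean of 65% or more; inconclusive = mean lower but half the replicates past it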;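 also: pathway switched on by Shh-conditioned medium diluted 1 in 25 in low serum; 100 nL library stock added to about 40 µL; 0% = median of neutral wells and 100% = positive control level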
# MITF inh: MITF inhibition. TRPM1 promoter luciferase, luminescence, 24 h. inhibition, % (no concentration beside the values). 0.28% of 37,000 active;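 active = most replicates at 85% or more, or half of them and the mean; inconclusive = half reach 85% but not the mean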;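 also: human melanocyte line stably carrying TRPM1 promoter luciferase reporter; 0% = vehicle wells and 100% = a positive control; the first replicate is given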
# YB-1 expr inh: YB-1 expression inhibition; 0.37% of 30,000 active; delta delta Cp (YB-1 minus CDIP) (concentration not given with the values); AID 434959; U2OS, qRT-PCR YB-1 vs CDIP delta delta Cp, 16 h; hits give high values; zero = DMSO, each unit about twofold;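 active = delta delta Cp rounded down to an integer at or above 3, about 3 SD of DMSO wells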;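 also: higher means less YB-1 transcript or more CDIP transcript relative to DMSO; stock transfer was 100 nL into about 100 µL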
# PD-1 reversal: activators reversing PD-1 mediated T-cell inhibition. primary human CD4 T cells, PD-L1 beads, CellTiter-Glo 96 h. activation, % (test concentration not listed). 29,000 tested, under 10 active. AID 2316;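 active = replicate mean of 50% or more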;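 also: 0% = median vehicle wells and 100% = positive control; 100 nL library stock added to about 50 µL; numbers are from one replicate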
# An asterisk follows results filed as active; ? = inconclusive; nt = not tested or not shown.
SMILES,Shh pathway inh,MITF inh,YB-1 expr inh,PD-1 reversal
C[C@H](CO)N1C[C@H](C)[C@H](CN(C)Cc2ccccc2)Oc2ccc(NC(=O)CCCN(C)C)cc2C1=O,-28,-8,-0.27,0.3
CNC[C@@H]1Oc2ccc(NC(=O)CCCN(C)C)cc2C(=O)N([C@@H](C)CO)C[C@H]1C,36,-10,-0.054,0.1
O=C(Nc1csnc1-c1c(Cl)cccc1Cl)NN1CCCCC1,-37,4,0.36,-0.2
C=C1C(=O)C23CC(O)C4C(C)(C(=O)OC5OC(CO)C(O)C(O)C5O)CCCC4(C)C2=CCC1(O)C3 (stereo not drawn),14,nt,0.51,nt
COc1ccc2c(c1)C(C)CC(C)(C)N2C(=O)CSc1nc2ccccc2[nH]1 (stereo not drawn),nt,-4,nt,-0.9
C[C@H](CO)N1C[C@H](C)[C@@H](CN(C)S(=O)(=O)c2ccc(Cl)cc2)Oc2c(NS(=O)(=O)c3cccs3)cccc2C1=O,-8,4,0.29,0.6
CNC[C@@H]1Oc2ccc(NC(=O)Nc3ccc4c(c3)OCO4)cc2CC(=O)N([C@H](C)CO)C[C@@H]1C,nt,-9,-0.062,nt
Cc1cccc(N=Cc2c(Nc3cccc(C)c3)nc3ccccn3c2=O)c1,-41,-23,-0.2,-0.5
CNC[C@H]1Oc2c(cccc2N(C)C)C(=O)N([C@H](C)CO)C[C@@H]1C,-2,-8,0.045,1.2
COc1ccc(NC(=O)Nc2cccc3c2O[C@H](CN(C)C(=O)Nc2ccc(OC)cc2)[C@@H](C)CN([C@@H](C)CO)C3=O)cc1,-33,-24,0.04,0.7
C[C@H]1CN([C@@H](C)CO)C(=O)c2cccc(NC(=O)c3ccncc3)c2O[C@H]1CN(C)S(=O)(=O)c1ccc(F)cc1,24,-13,-0.0052,-1.5
Cc1noc(C)c1S(=O)(=O)Nc1ccc2c(c1)C(=O)N([C@H](C)CO)C[C@H](C)[C@@H](CN(C)Cc1ccc3c(c1)OCO3)OCCCC[C@@H](C)O2,-30,0,0.46,-3.2
COc1ccc(S(=O)(=O)N(C)C[C@H]2Oc3c(NC(=O)c4cnccn4)cccc3C(=O)N([C@@H](C)CO)C[C@H]2C)cc1,-1,-11,-0.15,0.3
CC1(C)Cc2c(c(N3CCOCC3)nc3sc4c(=O)[nH]nnc4c23)CO1,nt,-6,nt,-5.3
CNC[C@H]1Oc2ccc(NS(=O)(=O)c3ccc(C)cc3)cc2CC(=O)N([C@H](C)CO)C[C@H]1C,-5,5,0.31,1.8
CCOC(=O)COc1ccc(-c2nc3c([nH]2)c(=O)n(C)c(=O)n3C)cc1OC,nt,-14,nt,2.3
Cc1[nH]c2ccccc2c1C(=O)CSc1ncnc2sc(C)c(C)c12,nt,22,nt,2.6
C[C@@H]1CN([C@@H](C)CO)C(=O)c2cccc(NC(=O)c3nc4ccccc4s3)c2O[C@@H]1CN(C)Cc1ccc(C(=O)O)cc1,-13,12,0.082,-0.3
COC(=O)/C=C/S(=O)(=O)c1ccc(NC(C)=O)cc1,94*,21,-0.39,-4.8
COc1ccc(NC(=O)N(C)C[C@@H]2OCCCC[C@@H](C)Oc3ccc(NC(=O)CCC(F)(F)F)cc3C(=O)N([C@H](C)CO)C[C@@H]2C)cc1,-77,-4,-0.1,-0.6
C[C@H](CO)N1C[C@H](C)[C@H](CN(C)S(=O)(=O)c2cn(C)cn2)Oc2ccc(NS(=O)(=O)c3ccc(Cl)cc3)cc2CC1=O,-11,-2,0.083,1.9
COc1ccc(CN(C)C[C@H]2Oc3ccc(NS(=O)(=O)c4c(C)noc4C)cc3CC(=O)N([C@@H](C)CO)C[C@@H]2C)cc1,?,-3,-0.3,nt
C[C@H](CO)N1C[C@H](C)[C@H](CN(C)Cc2ccc(Oc3ccccc3)cc2)Oc2ccc(NC(=O)Cc3ccccc3)cc2C1=O,nt,25,-0.27,nt
Cn1nnnc1SCC(=O)Nc1ccc2c(c1)OCCO2,nt,23,nt,0.3
C[C@H](CO)N1C[C@H](C)[C@H](CN(C)C(=O)NC2CCCCC2)Oc2ccc(N(C)C)cc2CC1=O,-12,3,0.22,0.3
SMILES,Shh pathway inh,MITF inh,YB-1 expr inh,PD-1 reversal
O=C(Nc1ccccc1)Nc1ccccc1SCCS(=O)(=O)c1ccc(Cl)cc1,3,11,-0.55,-2.2
COc1ccc(NC(=O)CSc2nc(C)cc(C)n2)cc1,nt,-5,nt,-0.9
CCOC(=O)c1c[nH]c2c(C)c(Cl)ccc2c1=O,nt,-10,-0.13,0.6
CCOc1ccc2ccccc2c1C(=O)NCc1ccco1,nt,-4,nt,-0.4
COc1ccc(S(=O)(=O)N(C)C[C@@H]2Oc3c(NC(=O)NC(C)C)cccc3C(=O)N([C@H](C)CO)C[C@H]2C)cc1,-1,2,-0.1,0.4
O=C(CSc1ncnc2sc3c(c12)CCC3)N1CCOCC1,nt,-14,nt,-0.5
C[C@@H]1CN([C@@H](C)CO)C(=O)Cc2cc(NC(=O)C3CC3)ccc2O[C@@H]1CN(C)CC1CC1,-26,9,-0.12,1.3
C[C@@H]1CN([C@@H](C)CO)C(=O)c2cc(NS(=O)(=O)c3cn(C)cn3)ccc2O[C@@H]1CN(C)C(=O)Nc1ccc(F)cc1,-20,-5,0.26,2.2
C[C@@H]1CN([C@H](C)CO)C(=O)c2cccc(NC(=O)CCCCCC(=O)Nc3ccccc3N)c2O[C@H]1CN(C)Cc1ccc2c(c1)OCO2,nt,48,-0.23,-0.2
C[C@@H]1CN([C@@H](C)CO)C(=O)c2cc(NC(=O)c3ccncc3)ccc2O[C@H]1CN(C)S(=O)(=O)c1ccc(F)cc1,nt,-7,0.0091,nt
CC(C)NC(=O)Nc1ccc2c(c1)C(=O)N([C@H](C)CO)C[C@H](C)[C@H](CN(C)Cc1ccc(C(=O)O)cc1)OCCCC[C@@H](C)O2,-20,-7,0.43,nt
O=C(CSc1ncn(-c2ccccc2)n1)Nc1ccc(F)c(Cl)c1,nt,-4,nt,1.2
COc1ccc(NC(=O)Nc2ccc3c(c2)C(=O)N([C@H](C)CO)C[C@H](C)[C@H](CN(C)C)OCCCC[C@@H](C)O3)cc1,-2,2,0.03,nt
O=C1CC(c2ccc(O)cc2)Oc2cc(O)cc(O[C@@H]3O[C@H](CO)[C@@H](O)[C@H](O)[C@H]3O)c21 (stereo partly drawn),17,nt,0.84,nt
CS(=O)(=O)N(CC(=O)Nc1ccccc1)c1ccc(F)c(Cl)c1,nt,-9,nt,1.3
C[C@H](CO)N1C[C@H](C)[C@@H](CN(C)Cc2ccc(C(=O)O)cc2)Oc2c(NS(=O)(=O)c3ccc(Cl)cc3)cccc2C1=O,-5,-10,0.012,2.2
CSc1ccccc1NC(=O)CN(C)S(=O)(=O)c1ccc(C)cc1,nt,11,nt,-0.6
Cc1ccc2nc(CCCC(=O)O)[nH]c2c1,-36,-1,-0.25,-0.2
CS(=O)(=O)N(CC(=O)Nc1ccc(F)cc1F)c1ccc(Br)cc1,nt,-19,nt,0.4
C[C@H]1CN([C@@H](C)CO)C(=O)c2cccc(NC(=O)C3CCOCC3)c2O[C@@H]1CN(C)Cc1ccc(Cl)c(Cl)c1,43,-26,0.32,-1.7
Cc1ccccc1Nc1nc(N)nc(CN2CCN(c3ccccn3)CC2)n1,nt,-6,nt,2.0
COc1ccc(-c2noc(CC(=O)O)c2-c2ccc(OC)cc2)cc1,nt,-11,nt,2.3
C[C@@H]1CN([C@H](C)CO)C(=O)c2cccc(NS(=O)(=O)c3ccc(Cl)cc3)c2O[C@@H]1CN(C)Cc1ccc(C(=O)O)cc1,-35,-13,-0.38,1.4
C[C@@H]1CN([C@@H](C)CO)C(=O)c2cc(NC(=O)CCCCCC(=O)Nc3ccccc3N)ccc2O[C@H]1CN(C)C(=O)Nc1ccc2c(c1)OCO2,nt,-13,0.27,1.2
COc1ccc(-c2ccc(CCC(=O)O)n2-c2cc(Cl)ccc2O)cc1,nt,16,nt,-1.4

# Entries of single compounds, quoted from the list. Order of values: Shh pathway inh | MITF inh | YB-1 expr inh | PD-1 reversal
# CS(=O)(=O)N(CC(=O)Nc1ccc(F)cc1F)c1ccc(Br)cc1 is listed as nt | -19 | nt | 0.4
# C[C@H]1CN([C@@H](C)CO)C(=O)c2cccc(NC(=O)C3CCOCC3)c2O[C@@H]1CN(C)Cc1ccc(Cl)c(Cl)c1 is listed as 43 | -26 | 0.32 | -1.7
# COc1ccc(NC(=O)Nc2ccc3c(c2)C(=O)N([C@H](C)CO)C[C@H](C)[C@H](CN(C)C)OCCCC[C@@H](C)O3)cc1 is listed as -2 | 2 | 0.03 | nt
# CS(=O)(=O)N(CC(=O)Nc1ccccc1)c1ccc(F)c(Cl)c1 is listed as nt | -9 | nt | 1.3

# Remaining list, next part:
SMILES,Shh pathway inh,MITF inh,YB-1 expr inh,PD-1 reversal
C[C@H]1CN([C@@H](C)CO)C(=O)Cc2cc(NC(=O)Cn3cnnn3)ccc2O[C@H]1CN(C)Cc1ccc(-c2ccccc2)cc1,-12,7,-0.12,1.9
C[C@@H]1CN([C@H](C)CO)C(=O)c2cccc(NS(=O)(=O)c3ccc(Cl)cc3)c2O[C@@H]1CN(C)C(=O)Nc1ccc(C(F)(F)F)cc1,-13,28,-0.16,-1.8
C[C@H]1CN([C@@H](C)CO)C(=O)Cc2cc(NS(=O)(=O)c3cccs3)ccc2O[C@H]1CN(C)Cc1ccc(C(F)(F)F)cc1,nt,-15,-0.15,0.6
C[C@H]1CN([C@@H](C)CO)C(=O)c2cc(NC(=O)C3CC3)ccc2O[C@@H]1CN(C)Cc1ccc(-c2ccccc2)cc1,16,10,0.077,-0.1
O=S(=O)(N1CCOCC1)n1nnc2ccccc21,nt,-16,nt,2.1
C[C@@H]1CN([C@@H](C)CO)C(=O)Cc2cc(NC(=O)Cc3cn(C)c4ccccc34)ccc2O[C@@H]1CN(C)Cc1ccncc1,13,1,-0.05,-4.5
C[C@@H]1CN([C@@H](C)CO)C(=O)Cc2cc(NS(=O)(=O)c3cn(C)cn3)ccc2O[C@@H]1CN(C)S(=O)(=O)c1ccccc1,-40,-3,0.57,2.3
C[C@@H]1CN([C@H](C)CO)C(=O)c2cc(NC(=O)C3CCCCC3)ccc2O[C@H]1CN(C)S(=O)(=O)c1ccccc1,nt,-29,0.068,-1.6
Cc1noc(C)c1NC(=O)Nc1cccc2c1O[C@H](CN(C)C(=O)Nc1ccc(C(F)(F)F)cc1)[C@H](C)CN([C@@H](C)CO)C2=O,28,-7,-0.01,nt
COc1ccc(NC(=O)Nc2cccc3c2O[C@H](CN(C)C(=O)Nc2ccc(OC)cc2)[C@H](C)CN([C@@H](C)CO)C3=O)cc1,8,-3,-0.094,nt
COc1ccc(NC(=O)N(C)C[C@@H]2Oc3c(NS(=O)(=O)c4cccs4)cccc3C(=O)N([C@@H](C)CO)C[C@@H]2C)cc1,1,-1,0.14,1.4
C[C@@H]1CN([C@H](C)CO)C(=O)c2cc(NC(=O)C3CCCCC3)ccc2O[C@@H]1CN(C)Cc1ccc(C(=O)Nc2ccccc2N)cc1,nt,-10,-0.55,-1.3
COc1ccc(S(=O)(=O)N(C)C[C@@H]2Oc3ccc(NC(=O)Nc4ccc(C(F)(F)F)cc4)cc3C(=O)N([C@H](C)CO)C[C@H]2C)cc1,11,24,-0.25,1.7
CCCn1c(NCc2cccc(OC)c2O)nc2ccccc21,nt,-52,nt,1.3
O=C1N=C(c2cccc(O)c2)c2ccccc2Nc2ccccc21,86*,10,-0.026,2.3
C[C@@H]1CCCCO[C@@H](CN(C)CC2CCCCC2)[C@@H](C)CN([C@H](C)CO)C(=O)c2cc(NS(=O)(=O)c3cccs3)ccc2O1,3,-4,-0.057,nt
COc1ccc(CN(C)C[C@H]2Oc3c(NS(=O)(=O)c4ccc(OC)cc4)cccc3C(=O)N([C@H](C)CO)C[C@@H]2C)cc1,?,-1,-0.14,nt
C[C@@H]1CN([C@@H](C)CO)C(=O)c2cc(N(C)C)ccc2O[C@@H]1CN(C)C(=O)NC1CCCCC1,12,-4,-0.29,0.1
C[C@H]1CN([C@@H](C)CO)C(=O)c2cc(NC(=O)CCCCCC(=O)Nc3ccccc3N)ccc2O[C@H]1CN(C)C(=O)Nc1ccc(F)cc1,nt,-9,-0.073,0.0
C[C@H]1CN([C@@H](C)CO)C(=O)c2cccc(NC(=O)Nc3ccc(F)cc3)c2O[C@H]1CN(C)S(=O)(=O)c1ccc(Cl)cc1,108*,61,0.081,-5.7
C[C@H]1CN([C@@H](C)CO)C(=O)c2cc(NS(=O)(=O)c3ccc(F)cc3)ccc2O[C@@H]1CN(C)Cc1ccc(C(=O)O)cc1,nt,-4,1,2.2
COc1ccc(S(=O)(=O)Nc2ccc3c(c2)CC(=O)N([C@H](C)CO)C[C@H](C)[C@H](CN(C)C)O3)cc1,-13,-6,-0.19,1.2
Cc1noc(C)c1NC(=O)Nc1ccc2c(c1)C(=O)N([C@@H](C)CO)C[C@H](C)[C@@H](CN(C)S(=O)(=O)c1ccc(F)cc1)O2,14,2,-0.46,1.4
Cc1cc(C(F)F)n2nc(C(=O)Nc3ccc(S(=O)(=O)N4CCCC4)cc3)nc2n1,nt,-2,nt,1.6
C[C@H](CO)N1C[C@H](C)[C@H](CN(C)Cc2ccc(Cl)c(Cl)c2)Oc2ccc(NC(=O)Nc3ccc(F)cc3)cc2CC1=O,14,3,-0.11,-0.6

# An excerpt (hit frequency here may not be typical).
